Screens (PubChem)
HPGD block – blocks human HPGD enzyme activity; Potency, µM, for inactives: top-dose activity change, negative = inhibition, usual class: inhibitors; P15428; purified HPGD, NADH fluorescence kinetic, PGE2 substrate; 4.3% of 150,000 active; active = well fitted inhibition curve with a large enough effect (not every such curve was filed as active); inconclusive = small, poorly fitted or top-dose-only effect, or another doubt; inactive = no such curve, though single readings can be large or run the other way;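 also: top concentration of the series not given in the record; plate controls included wells without enzyme; inactives centre near -10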
Target sequence (P15428 whole entry, looked up): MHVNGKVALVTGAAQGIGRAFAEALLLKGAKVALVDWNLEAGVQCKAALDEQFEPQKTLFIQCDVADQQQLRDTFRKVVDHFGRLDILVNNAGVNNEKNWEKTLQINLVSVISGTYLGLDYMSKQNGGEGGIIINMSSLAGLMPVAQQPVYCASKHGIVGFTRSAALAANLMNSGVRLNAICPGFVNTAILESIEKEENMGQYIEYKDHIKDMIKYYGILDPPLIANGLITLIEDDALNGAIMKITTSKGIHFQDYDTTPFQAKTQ
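20 nM HPGD preincubated 15 min at room temperature with compound in 50 mM Tris-HCl pH 8, 0.01% Tween 20. Started with 1 mM NAD+ and 30 uM prostaglandin E2; NADH fluorescence (360/450 nm) read 5 times over 30-s intervals, last minus first.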
An asterisk follows results filed as active; ? = inconclusive. % is scaled to controls: 0 for no effect and ±100 for the full control effect; potency is read from the fitted curve at half-maximal effect. A portion of the library; the hit share may differ from the screen's.

SMILES	HPGD block
Cc1cc(S(=O)(=O)Nc2c(C(=O)O)[nH]c3ccccc23)ccc1F	-9%
Cc1nc2cc(NC(=O)COc3ccccc3C#N)ccc2n1-c1ccccc1	-16%
O=C(Cc1ccc(-n2c(=O)c3ccccc3n(Cc3ccccc3F)c2=O)cc1)NCC1CCCO1 (stereo not given)	-12%
Cc1cc(C2C(=O)C(C(=O)c3ccc(Cl)cc3)C(=O)CC2(C)C)on1 (stereo not given)	-9%
O=C(NCc1ccc(F)cc1)c1cnc2sccn2c1=O	?
O=C(Nc1nnc(Cc2ccccc2)s1)c1ccco1	-12%
CCC(CC)c1nnc(NS(=O)(=O)Cc2ccccc2)s1	-18%
CCn1c(SC)nnc1C1CCN(S(=O)(=O)c2ccc(OC)cc2)CC1	0%
O=c1cc(CSc2ccc(S(=O)(=O)N3CCCCC3)cn2)nc2sccn12	-6%
COC1(OC)N=C(N)C2(C#N)C(c3ccc(F)cc3)C12C#N (stereo not given)	-10%
COc1ccc(Cc2noc(-c3ccc(C)cc3)n2)cc1	-3%
Cc1cc(SCC(=O)c2cccs2)n2nc(C)c(-c3ccc(Cl)cc3)c2n1	-15%
COc1ccc(C(=O)c2c(C)oc3cc([N+](=O)[O-])c(O)c([N+](=O)[O-])c23)cc1	14µM*
CC(=O)NC1N=C(C)N(c2ccccc2)C1=O (stereo not given)	-22%
CCOC(=O)C(NCCc1ccccc1)(NC(=O)CC)C(F)(F)F (stereo not given)	3%
COc1ccc(-c2cc(=O)[nH][nH]2)cc1	-9%
CC(C)NC(=O)N1CCCC2(CCN(C(=O)c3ccco3)CC2)C1	-5%
O=S(=O)(c1ccc(F)cc1)N1CCn2c(nc3ccccc32)C1	-9%
O=C(COC(=O)CCc1c[nH]c(=O)[nH]1)Nc1ccccc1Cl	-15%
CC(=O)c1cc2c(cc1NC(=O)c1cc(C)nn1-c1ccccc1)OCO2	?
CCOC(=O)COc1ccc(S(=O)(=O)NCC2CCCO2)cc1 (stereo not given)	4%
CC1(C)N=C(SCC(=O)Nc2ccc(Cl)cc2)C(c2ccc(Cl)cc2)=N1	-15%
COc1ccc(C2CC(=O)C(C=NCCN3CCN(C(C)=O)CC3)=C(O)C2)cc1OC (stereo not given)	-3%
CCCCn1c(C)nc2c(=O)n(C)c(=O)[nH]c21	-3%
Cc1ccccc1NC(=O)CSc1nc(N2CCCCC2)nc(N2CCCCC2)n1	-4%

Printed as active in HPGD block (from the list above):
SMILES	HPGD block
COc1ccc(C(=O)c2c(C)oc3cc([N+](=O)[O-])c(O)c([N+](=O)[O-])c23)cc1	14µM*

Additional entries:
SMILES	HPGD block
CCn1c(NC(=O)c2cccs2)nc2ccccc21	-9%
CCc1nc(-c2ccc(OC)c(OC)c2)cc2cc(OC)c(OC)cc12	-30%
COc1cc2c(cc1OC)C(c1cc3cc4c(cc3[nH]c1=O)OCO4)N(C(=O)C(C)C)CC2 (stereo not given)	?
CCC(C)[C@H](N)c1nnc(SCc2cccc(F)c2)o1 (stereo not given in full)	-18%
N#Cc1c(NC(=O)c2ccccc2)sc2c1CCC2	?
COc1cc(NC(=O)c2cc3sccc3n2C)cc(OC)c1	-4%
O=C(CN1CCN(S(=O)(=O)c2ccc(Br)cc2)CC1)Nc1ccc(F)cc1	4%
CCn1nnnc1SCCSc1nnnn1CC	-1%
COc1ccccc1CNC(=O)CSc1nc2nc(C)cc(C)n2n1	-10%
Cc1nn(Cc2ccccc2)c(C)c1NC(=O)Cn1nc([N+](=O)[O-])c(Cl)c1C	-7%
CC(OC(=O)c1cccs1)C(=O)NCc1cccs1 (stereo not given)	-23%
Cc1oc2c(C)c(O)ccc2c(=O)c1-c1ccc2ccccc2n1	-8%
CC[C@@H]1OC(=O)[C@H](C)[C@H](O[C@@H]2C[C@](C)(OC)[C@H](O)[C@H](C)O2)[C@H](C)[C@H](O[C@@H]2O[C@@H](C)C[C@@H](N(C)C)[C@@H]2O)[C@](C)(O)C[C@H](C)[C@@H]2N[C@H](COCCOC)O[C@H]([C@@H]2C)[C@]1(C)O	0%
O=C1CSC2(CCN(CCCN3c4ccccc4Sc4ccc(Cl)cc43)CC2)N1	-11%
CN(C)CCSc1nc(N)c2c3c(sc2n1)COC(C)(C)C3	-16%
CC(C)C(c1nnnn1Cc1ccccc1)N1CCC(C(N)=O)CC1 (stereo not given)	-2%
CC(C)Oc1ccc(C(=O)OC(C)C(=O)Nc2nc(-c3cccc([N+](=O)[O-])c3)cs2)cc1 (stereo not given)	-8%
Cc1cc(C(C)(C)C)oc1C(=O)N1CCN(C(=O)c2oc(C(C)(C)C)cc2C)CC1	-9%
Cc1cc(Nc2ccccc2N2CCOCC2)n2ncnc2n1	18µM*
Cc1ccc2c(CC(=O)OC(C)C(=O)NCc3ccc4c(c3)OCO4)coc2c1 (stereo not given)	14µM*
CN1CCN(c2nc3c(c(=O)[nH]c(=O)n3C)n2CCCSc2ncccn2)CC1	-7%
CCCCn1c(=O)n(CC(=O)Nc2ccc(C)c(Cl)c2)c(=O)c2c1ncn2Cc1ccco1	-12%
Cc1oc(-c2cccs2)nc1CS(=O)CC(=O)NCCCN1CC(C)CC(C)C1 (stereo not given)	-1%
CCCCN1C(=O)Nc2ccccc2S1(=O)=O	-13%
CSc1nc2ccc(NS(=O)(=O)c3ccc4c(c3)OCCO4)cc2s1	-22%

6 of the entries above in order of their number in HPGD block, falling.
SMILES | HPGD block
O=C(CN1CCN(S(=O)(=O)c2ccc(Br)cc2)CC1)Nc1ccc(F)cc1 | 4%
CC[C@@H]1OC(=O)[C@H](C)[C@H](O[C@@H]2C[C@](C)(OC)[C@H](O)[C@H](C)O2)[C@H](C)[C@H](O[C@@H]2O[C@@H](C)C[C@@H](N(C)C)[C@@H]2O)[C@](C)(O)C[C@H](C)[C@@H]2N[C@H](COCCOC)O[C@H]([C@@H]2C)[C@]1(C)O | 0%
CCn1nnnc1SCCSc1nnnn1CC | -1%
CCn1c(NC(=O)c2cccs2)nc2ccccc21 | -9%
COc1ccccc1CNC(=O)CSc1nc2nc(C)cc(C)n2n1 | -10%
CN(C)CCSc1nc(N)c2c3c(sc2n1)COC(C)(C)C3 | -16%

(continued)
SMILES	HPGD block
Cc1ncsc1CCSc1n[nH]c(=O)n1-c1ccccc1	-1%
CCOC(=O)c1[nH]nc2c1C(=O)N(Cc1ccccc1)C2=O	8.9µM*
CCc1nnc(NC(=O)CCC(=O)NCCc2ccc(OC)c(OC)c2)s1	-4%
CC1(C)CC(=O)C2=C(C1)N(Cc1cccnc1)C(=O)C2(NC(=O)c1cccnc1)C(F)(F)F (stereo not given)	-6%
O=C(C[n+]1ccc(C(=O)N/N=C/c2ccc(Cl)cc2Cl)cc1)c1ccccc1	-10%
N#CCSCC(=O)Nc1ccc(Cl)cc1	-28%
COC(=O)c1cc2c(ccn2-c2ccc(F)cc2)n1Cc1ccc(OC(C)=O)cc1	?
Cc1ccc(C2OC34CCCCCC3C(C#N)(C(=N)O4)C2(C#N)C#N)cc1 (stereo not given)	?
CCCC(C(=O)NCc1ccco1)N(C(=O)CNS(=O)(=O)c1ccc(Cl)cc1)C1CCCC1 (stereo not given)	-3%
c1cncc(-c2nc(-c3ccco3)cs2)c1	?
Cc1cnc(C(=O)OCC(=O)Nc2ccc(C)c(S(=O)(=O)N3CCCCC3)c2)cn1	-12%
CC1(C)CC(=O)C(C(C2=C(O)CC(C)(C)CC2=O)c2ccc(Br)s2)C(=O)C1 (stereo not given)	1.4µM*
O=C(Cn1nnc(-c2ccccc2)n1)c1ccccc1	?
CCOc1ccc(NC(=O)CSc2nnc(-c3ccccn3)n2N)cc1	-15%
CCn1c(SCc2cccnc2)nnc1-c1c[nH]c2ccccc12	-4%
COCCOC(=O)C1=C(C)NC(=O)NC1c1c(OC)ncnc1OC (stereo not given)	-1%
CCc1ccc(NC(=O)CSc2nc3cc(C(=O)OC)ccc3c(=O)n2CC2CCCO2)cc1 (stereo not given)	-22%
COc1cccc(-c2csc(N3CCN(C(=S)Nc4cccc(Cl)c4)CC3)n2)c1	-16%
Cc1c(C(=O)N2CCOCC2)sc(NC(=O)c2ccc3c(c2)OCO3)c1C#N	?
N#Cc1c(N)n(CCNC(=O)c2ccc(Cl)cc2)c2nc3ccccc3nc12	?
CC(=O)OCC1C2CC[C@H]3C(OCc4ccc(F)cc4C(F)(F)F)OC[C@]4(C)[C@H]3C2=C(CN4C(=O)OC(C)(C)C)[C@H](C)C1COC(C)=O (stereo not given in full)	-1%
O=C(CN1CCN(c2ccccn2)CC1)Nc1cc(C(F)(F)F)ccc1Cl	-7%
O=C(CSCc1cccc(Cl)c1)Nc1ccccc1-c1ccccc1	3%
O=C(CC1CCCCC1)N1CCCC(c2nc(-c3ccc(S(=O)(=O)N4CCCC4)cc3)no2)C1 (stereo not given)	-3%
CC(=O)c1ccc(N2CCN(C(=O)CCCn3c(=S)[nH]c4cc5c(cc4c3=O)OCO5)CC2)cc1	?

Later entries
SMILES	HPGD block
CCCCCCC(=O)NNC(=O)CC(=O)Nc1ccccc1C(=O)O	-9%
COC(=O)c1ccccc1NC(=O)NCc1ccco1	-12%
Cc1[nH]c2ccc(-c3n[nH]c(=S)n3Cc3ccccc3)cc2c1C	?
CC1(C)NC(=O)N(CCCCOc2ccc(Br)cc2Cl)C1=O	-16%
O=C(CSc1nnc(SCc2ccccc2)s1)N/N=C/C=C/c1ccccc1[N+](=O)[O-]	-24%
Cc1ccc(NC(=O)CCC(=O)NNC(=O)c2ccco2)c(C)c1	-3%
CC(=O)NC1=NN(C(C)=O)C(C)(CCS(=O)(=O)c2ccc(Cl)c(Cl)c2)S1 (stereo not given)	-9%
Cc1ccc(NC(=O)C2CCN(S(=O)(=O)c3ccc(F)cc3)CC2)cc1	-6%
CCOC(=O)N1CCN(C(=O)COc2cc(=O)n(CC)c3ccccc23)CC1	-1%
O=S(=O)(c1ccccc1)N1CCN(C2CCCCCCC2)CC1	-10%
CN1CCN(c2ncc3nc(-c4ccc(Cl)cc4)c(=O)n(C4CC4)c3n2)CC1	?
Cc1ccc(S(=O)(=O)N[C@H](C(=O)N2CCC(C(=O)NCC(=O)O)CC2)C(C)C)cc1	2%
COc1ccc(NC(=O)C2CC(=O)OC23CCOC(C)(C)C3)cc1 (stereo not given)	-20%
O=C(c1ccco1)N1CCN(Cc2cccnc2)CC1	2%
COc1ccccc1C1NC(=O)NC(C)=C1C(C)=O (stereo not given)	-1%
Cc1ccnc(N2C(=O)c3cccc4c([N+](=O)[O-])ccc(c34)C2=O)c1	-22%
O=C1c2ccccc2C(=O)N1CCN1CCOCC1	-9%
CCC(SC1=Nc2ccccc2C2=NC(CC(C)C)C(=O)N12)C(=O)Nc1ccc2c(c1)OCO2 (stereo not given)	?
CC1=C(C(=O)Nc2ccc(C)cn2)C(c2cnn(C)c2)C2=C(CCCC2=O)N1 (stereo not given)	?
O=C(NC(=S)Nc1nc2c(s1)CCCC2)c1ccccc1	-6%
Cc1ccc(S(=O)(=O)/C=C/c2ccccc2)cc1	-15%
O=c1[nH]c2ccc(S(=O)(=O)N3CCCCC3)cc2o1	0%
CCn1c(SCC(=O)Nc2cc(C)on2)nnc1-c1ccc(S(=O)(=O)N2CCCC2)cc1	-4%
CCOC(=O)N/N=C/c1ccccc1OCc1ccc(Cl)cc1	-5%
O=C(NCC(c1cccs1)N1CCOCC1)c1ccccc1NS(=O)(=O)c1ccc(Br)cc1 (stereo not given)	-4%

The list continues.
SMILES	HPGD block
CCOC(=O)N1CCC(N2CCN(S(=O)(=O)CC)CC2)CC1	2%
O=C(c1ccc(Br)cc1)C1CCc2occc2C1=O (stereo not given)	-26%
O=C(Nc1ccccc1C(=O)N1CCCCC1)C1CCCCC1	-5%
Cc1cccc(Cn2cnc3c(nnn3Cc3ccccc3F)c2=O)c1	16µM*
O=C(NC1=NCCS1)c1ccc(Cl)c(S(=O)(=O)N2CCCCC2)c1	-14%
O=S(=O)(Nc1ncn[nH]1)c1ccc(Cl)cc1	-18%
O=C(Cc1ccc(NS(=O)(=O)c2ccc(F)cc2)cc1)NCc1ccccc1	-5%
CC1CCCCC1NC(=O)Cn1nnc(-c2ccc(Cl)cc2)n1 (stereo not given)	-10%
CCOc1ccc(/C=C/C(=O)c2cc(Br)ccc(=O)c2O)cc1	?
COC(=O)c1ccc(CN2[C@H](C(=O)OC)C[C@@]3(O)[C@H](O)[C@H](O)[C@H](O)C[C@@H]23)cc1	-18%
COCCN1Cc2cccc(C(=O)Nc3cccnc3)c2C1=O	-5%
CCC1Oc2ccc(C)cc2N(Cc2cccc(C)c2)C1=O (stereo not given)	-9%
Cc1cc(-c2ccccc2C(=O)O)on1	-11%
Cc1nn(-c2ccccc2)c2c1C(c1c(C)[nH]c(C#N)c1C)C(C#N)=C(N)O2 (stereo not given)	-4%

Quoted at random: 7 compounds from above.
SMILES	HPGD block
Cc1cccc(Cn2cnc3c(nnn3Cc3ccccc3F)c2=O)c1	16µM*
Cc1oc(-c2cccs2)nc1CS(=O)CC(=O)NCCCN1CC(C)CC(C)C1 (stereo not given)	-1%
O=C(NC(=S)Nc1nc2c(s1)CCCC2)c1ccccc1	-6%
CCn1c(SCc2cccnc2)nnc1-c1c[nH]c2ccccc12	-4%
Cc1ccc(NC(=O)CCC(=O)NNC(=O)c2ccco2)c(C)c1	-3%
CN1CCN(c2nc3c(c(=O)[nH]c(=O)n3C)n2CCCSc2ncccn2)CC1	-7%
CCn1c(NC(=O)c2cccs2)nc2ccccc21	-9%
